High-throughput results deposited in PubChem BioAssay by National Center for Advancing Translational Sciences (NCATS).
Cruzain inh Det – qHTS Assay for Promiscuous and Specific Inhibitors of Cruzain (with detergent); Cruzipain (Trypanosoma cruzi), P25779; purified cruzain, Z-FR-AMC fluorescence, 0.01% Triton; Potency, µM, inactives show max response, negative = inhibition, hits mostly inhibitors; hit rate 0.43% among 200,000;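 note: plate controls were neutral wells for no effect and buffer without enzyme for full effect; nearly all actives have a fitted effect of over 40% in size; top concentration of the series not given in the record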
Target sequence (P25779 123-467 limits assumed): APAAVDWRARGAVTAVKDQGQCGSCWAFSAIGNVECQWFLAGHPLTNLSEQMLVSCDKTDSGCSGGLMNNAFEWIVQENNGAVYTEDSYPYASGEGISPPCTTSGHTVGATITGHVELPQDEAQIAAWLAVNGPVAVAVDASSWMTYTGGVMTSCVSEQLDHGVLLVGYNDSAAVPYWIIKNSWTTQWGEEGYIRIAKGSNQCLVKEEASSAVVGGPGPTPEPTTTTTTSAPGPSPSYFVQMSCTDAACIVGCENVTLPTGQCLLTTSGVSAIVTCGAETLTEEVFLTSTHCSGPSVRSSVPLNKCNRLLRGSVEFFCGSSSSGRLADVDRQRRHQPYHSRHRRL
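Z-FR-AMC hydrolysis (2 uM substrate) by cruzain (1.5 nM) monitored kinetically at ex 360/em 450 nm after 15 min room-temperature compound exposure; 0.01% Triton X-100, pH 5.5, 5 mM DTT.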
Marburg entry inh – qHTS for inhibitors of binding or entry into cells for Marburg Virus | Marburg virus pseudotyped entry inhibition, cell reporter; control for the full effect not named in the record; about a third of the inactives were read at about 46 µM | Potency, µM (titrated, usually from 37.8 µM), inactives show at the top dose activity change, negative = inhibition, most hits filed as inhibitors | hit rate 1.8% among 300,000; active = well fitted inhibition curve with a large enough effect; inconclusive = small, poorly fitted or top-dose-only effect, or effect the other way; inactive = flat fitted curve, though single readings scatter; tested in HEK293 cells; about a fifth of its hits are not listed in these tables; note: % is set by controls: 0 for no effect and ±100 for the full control effect; luciferase read-out
RE007 growth inh – qHTS Assay for Inhibitors of the HIV-1 protein Vpr | S. pombe RE007 Vpr strain, BacTiter-Glo ATP luminescence, 24 h; control for the full effect not named in the record | Potency, µM (doses to about 92.2 µM), inactives show top-dose activity change, negative = less growth | hit rate 0.21% among 360,000; active = well fitted falling curve with a large enough effect; inconclusive = small, poorly fitted or top-dose-only effect; inactive = no such curve, though single readings can be large or run the other way;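 note: % is set by controls: 0 for no effect and ±100 for the full control effect; nearly all actives have a fitted effect of over 50% in size; the assay follows cell death caused by Vpr and the record does not say whether a fall means rescue or toxicity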
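Fission yeast RE007 carrying one integrated HIV-1 vpr copy, seeded at OD 0.01 in PMG+AL medium with 23 nL pinned compound. Grown 24 h at 30 degrees; viability read by BacTiter-Glo luminescence after 5 min.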
Lassa entry inh – qHTS for Inhibitors of binding or entry into cells for Lassa Virus; Lassa virus pseudotype entry inhibition, cell reporter; control for the full effect not named in the record; Potency, µM (titrated, usually from 37.9 µM), for inactives: top-dose activity change, negative = inhibition, most hits filed as inhibitors; hit rate 1.2% among 300,000; AID 540256, 2011; active means well fitted inhibition curve with a large enough effect; inconclusive means small, poorly fitted or top-dose-only effect, or effect the other way; inactive means flat fitted curve, though single readings scatter; tested in HEK293 cells; note: % is set by controls: 0 for no effect and ±100 for the full control effect; nearly all actives have a fitted effect of over 50% in size; luciferase read-out
Cruzain inh noDet – qHTS Assay for Promiscuous and Specific Inhibitors of Cruzain (without detergent); purified cruzain, Z-FR-AMC fluorescence, no detergent; Potency, µM, without a hit: max response, negative = inhibition, most hits filed as inhibitors; hit rate 2.3% among 200,000;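 note: plate controls were enzyme without inhibitor for no effect and buffer without enzyme for full effect; nearly all actives have a fitted effect of over 40% in size; top concentration of the series not given in the record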
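Purified cruzain at 1.5 nM, pre-incubated 15 min with compound at room temperature in 100 mM sodium acetate pH 5.5, 5 mM DTT, 0.00005% Triton X-100. Reaction started with 2 uM Z-FR-AMC; AMC fluorescence increase over 60 s gives rate.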
StopGo reporter – High Throughput Screening for Foot and Mouth Disease Virus Antivirals; hit rate 1.2% among 410,000; AID 1159524, 2015; human cells with a luciferase reporter of 2A StopGo recoding; control for the full effect not named in the record; Potency, µM (top dose mostly 57.9 µM), inactives show at the highest dose signal change, negative = less light; active = well fitted falling curve with a large enough effect; inconclusive = small, poorly fitted or top-dose-only effect; inactive = no such curve, though single readings can be large or run the other way; tested in HEK293T cells; note: % is set by controls: 0 for no effect and ±100 for the full control effect; nearly all actives have a fitted effect of over 45% in size; luciferase light after 4 h
NS1 function inh – qHTS Assay for Inhibitors of Influenza NS1 Protein Function | Potency, µM (doses to about 46.1 µM), without a hit: at the top dose activity, positive = more growth | AID 2326, 2010 | S. cerevisiae slowed by influenza A NS1, growth recovery by OD600 | hit rate 0.4% among 270,000; active means well fitted rising curve with a large enough effect; inconclusive means small, poorly fitted or top-dose-only effect; inactive means no such curve, though single readings can be large or run the other way; note: nearly all actives have a fitted effect of over 50% in size
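Compounds were scored for reversing the slow growth caused by influenza A NS1 in S. cerevisiae, measured by optical density at 600 nm. Assay medium contained 2% galactose at pH 6.0; NS1-free yeast of the same strain were the positive control.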
SARS PLpro yeast – qHTS of Yeast-based Assay for SARS-CoV PLP | AID 485353, 2010 | Potency, µM (highest dose often 32.9 µM), for the others: top-dose activity, positive = growth rescue | S. cerevisiae expressing SARS-CoV PLpro, growth rescue; control for the full effect not named in the record | hit rate 0.19% among 330,000; active means well fitted rising curve with a large enough effect; inconclusive means small, poorly fitted or top-dose-only effect; inactive means no such curve, though single readings can be large or run the other way; note: 0% is about no effect; nearly all actives have a fitted effect of over 55% in size; growth read by luminescence after 48 h
* marks the source's active call; other numbers are inactive results; ? = inconclusive; · = not tested or not shown; & = joins results of further samples; [ ] = remark or other dose. Unless noted, calls come from the whole dose curve; as a rule, active = well fitted curve in the direction sought with a large enough effect; inconclusive = small, poorly fitted or top-dose-only effect, or another doubt; inactive = no such curve, though single readings can be large; an effect the other way counts as inactive or inconclusive. Potency is the fitted concentration of half-maximal effect.

SMILES	Cruzain inh Det	Marburg entry inh	RE007 growth inh	Lassa entry inh	Cruzain inh noDet	StopGo reporter	NS1 function inh	SARS PLpro yeast
O=C(c1cccc(S(=O)(=O)N2CCOCC2)c1)N1CCCCCC1	0.5%	0%	6%	18%	14%	-8%	-1%	0%
CCC(N=c1cc(-c2ccc(OC)c(OC)c2)oc2ccc(C)cc12)C(=O)O (stereo not drawn)	-8.6%	?	10%	30%	-10%	-10%	-8%	16%
O=C(C1=C[C@@H](C2CC2)C[C@@H](OCc2ccc(CO)cc2)O1)N1CCN(Cc2ccc3c(c2)OCO3)CC1	·	·	2%	·	·	?	-5%	0%
COc1ccc(S(=O)(=O)n2cccc2)cc1OC	·	·	-10%	·	·	0%	3%	7%
CCOc1ccc(C(C(=O)NCC2CCCO2)N(Cc2cccs2)C(=O)c2snc(C(N)=O)c2N)cc1 (stereo not drawn)	·	-17%[46.1 µM]	1%	?	·	-17%	20%	8%
CC(=O)c1ccc(NC(=O)CCOc2ccccc2)cc1	-10%	·	·	16%[46.1 µM]	-7%	50%[activator]	·	·
CC(=O)NCN1CCN(CNC(C)=O)CC1	4.0%	3%	4%	2%	13%	-19%	8%	-3%
CCOC(=O)[C@@H]1[C@H]2COc3cc(OC)ccc3[C@H]2N2C(=O)N(c3cccc(Cl)c3)C(=O)[C@@]12C	·	·	-6%	·	·	-16%	4%	-3%
Cc1nc(C)c(C(=O)Nc2cccc(C)c2C)s1	·	13%[46.1 µM]	10%	-1%[46.1 µM]	·	30%[activator]	1%	0%
O=S(=O)(c1ccccc1)c1nc(-c2ccc(F)cc2)oc1NCC1CCCO1 (stereo not drawn)	·	-4%	15%	?	·	11%	·	-6%
CN(C1CCCC1)C1CCN(C(=O)CNC(=O)/C=C/c2ccccc2)CC1	-4.6%	?	12%	17%	-4%	-21%	24%	-5%
Cc1oc2c(c(=O)c1C)C(=O)CC(c1ccccc1)C2 (stereo not drawn)	1.7%	-20%	12%	?	6%	-28%	-29%	-6%
Cc1c(NC(=O)c2cccc(S(=O)(=O)N3CCOCC3)c2)c(=O)n(-c2ccccc2)n1C	8.4%	13%	-1%	1%	-5%	·	0%	4%
CCOC(=O)[C@@]1(C#N)C(c2ccc(Cl)c(Cl)c2)[C@H](C(N)=O)N2C=C(C(C)=O)C=C[C@H]21 (stereo partly drawn)	-21%	-25%	1%	11%	?	?	10%	-6%
Cc1cccc(C2=NN(c3ccc(Br)cc3)[C@@H](C(=O)N3CCOC3=O)[C@@H]2c2ccccc2)c1	-10%	·	6%	·	18µM*	-14%	·	3.5µM*
COc1cccc(C2=NOC(C(=O)N3CCOCC3)C2)c1 (stereo not drawn)	6.6%	?	12%	?	-2%	0%	0%	0%
Cc1cccc(C)c1NC(=O)C1=C(O)c2sccc2N(C)S1(=O)=O	·	-27%[46.1 µM]	-8%	23%[46.1 µM]	·	-17%	·	0%
COc1ccc(OC)c(N2C(=O)[C@@H]3C(c4ccccc4Cl)=NO[C@@H]3C2=O)c1	-8.5%	?	3%	12%	1%	-16%	-4%	3%
O=C(NCCc1ccccc1)C1CCC(=O)N1C1CCCC1 (stereo not drawn)	·	13%	0%	-7%	·	14%	-2%	1%
CCOC(=O)c1c(C)[nH]c(C(=O)CN2C(=O)NC(CC)(c3ccccc3)C2=O)c1C (stereo not drawn)	-8.1%	?	4%	?	20%	0%	-22%	4%
CC(Sc1nnc(-c2cccnc2)n1N)C(=O)Nc1ccc2c(c1)OCCO2 (stereo not drawn)	·	23%	1%	-9%	·	-9%	·	-1%
Cc1cc(C)c(S(=O)(=O)N2CCOC2CNC(=O)C(=O)NCc2ccco2)c(C)c1 (stereo not drawn)	-1.2%	8%	-14%	8%	-3%	-12%	-15%	0%
N#CC1(c2ccccc2)CCC(=NO)CC1 (stereo not drawn)	7.7%	?	12%	18%	0%	-1%	-2%	26%
Cc1ccc(-n2c3c(cc(C(=O)Nc4cccc(Cl)c4)c2=O)C(=O)CC(C)(C)C3)cc1	-1.1%	·	·	-28%[46.1 µM]	0%	-1%	·	·
COc1cc2c(cc1/C=C1/NC(=O)N(CC(=O)Nc3ccccc3)C1=O)OCO2	·	-5%[46.1 µM]	35%	-11%	·	-13%	2%	0%
Continued:
SMILES	Cruzain inh Det	Marburg entry inh	RE007 growth inh	Lassa entry inh	Cruzain inh noDet	StopGo reporter	NS1 function inh	SARS PLpro yeast
O=C(/C(=C/c1ccccc1)c1ccccc1)N1CCCCC1	3.9%	-9%	-6%	?	3%	-3%	-28%	-1%
CCN(C(=O)C(=O)c1c[nH]c2ccccc12)c1ccccc1	·	·	-12%	·	·	2%	10%	1%
CCCn1c(SCC(=O)Nc2ccc(C)c(S(=O)(=O)N3CCOCC3)c2)n[nH]c1=O	1.9%	9%	-2%	0%	21%	-22%	-4%	-33%
Cc1cc(Nc2ccc(F)cc2C)n2nc(C)nc2n1	4.0%	·	4%	·	-7%	-7%	-2%	-11%
Cc1ccc(C)c(NC(=O)Cn2nc([N+](=O)[O-])c(Br)c2C)c1	-5.9%	4%	?	-12%	-24%	-20%	18%	6%
CCOc1ccc2nc(NC(=O)CN3CCC(n4nnc5cc(C(F)(F)F)ccc54)CC3)sc2c1	-0.6%	-20%	1%	-28%	-8%	?	0%	4%
COc1ccccc1NS(=O)(=O)c1ccc(OC)c(OC)c1	3.8%	?	-2%	1%	4%	26%	?	1%
COc1ccccc1N1CCN(C/C=C/c2ccc(N(C)C)cc2)CC1	-0.6%	2%	·	·	14%	·	-11%	25%
O=C(CSc1nc(-c2ccccc2)nc2ccccc12)Nc1cccc(C(=O)O)c1	·	6%[46.1 µM]	0%	11%	·	9%	·	0%
CCOc1ccccc1N1CCN(C(=O)CN2C(=O)NC3(CCCC3)C2=O)CC1	·	?	2%	0%	·	-12%	·	-3%
COc1cccc(C(=O)Nc2cc(C)c3c(=O)oc4ccccc4c3n2)c1	·	-2%	1%	·	·	-6%	10%&-2%	6%
Cc1cccc(C(=O)N2CCCC(Nc3ccc(F)c(F)c3)C2)n1 (stereo not drawn)	·	9%	15%	0%	·	2%	2%	3%
Cn1c(-c2ccc(F)cc2)cnc1NCc1ccc(C#N)cc1	2.8%	9%	-2%	-15%	6%	-12%	1%	2%
COc1ccccc1NC(=S)N(Cc1cccnc1)Cc1ccccc1Cl	·	-25%[46.1 µM]	-7%	10%	·	15%	·	-2%
CC(NO)C(C)(C)NO (stereo not drawn)	6.7%	-2%[46.1 µM]	1%	0%	-5%	-12%	-11%	-16%
COC(=O)CN1C(=O)C(C)(C)c2cc(S(=O)(=O)Nc3ccc(C(C)C)cc3)ccc21	-5.9%	·	·	-15%[46.1 µM]	?	18%	·	·
Cc1ccc(NC(=O)CN2C(=O)c3ccccc3Sc3ncccc32)c(C)c1	-3.8%	·	·	-1%[46.1 µM]	?	-27%	·	·
C/C(O)=C(/C=NCC(=O)O)C(=O)Nc1nccs1	·	?	4%	3%	·	12%	·	-4%
CS(=O)(=O)N1CCN(c2c(Cl)cccc2[N+](=O)[O-])CC1	-1.2%	3%	5%	6%	-3%	·	1%	11%
CC(C)COC(=O)Nc1nnc(Cc2ccccc2)s1	·	?	2%	-2%	·	0%	-1%	6%
O=C(NC(C(=O)O)c1ccccc1)c1ccccc1 (stereo not drawn)	14%	·	3%	·	1%	-18%	4%	-4%
CC(=O)COc1ccc2c3c(c(=O)oc2c1)CCCC3	-8.0%	0%	-13%	?	26%	37%[activator]	-64%	-18%
CC(NC(=O)CSc1nc2ccc(N)cc2s1)c1ccccc1 (stereo not drawn)	·	5%[46.1 µM]	5%	1%	·	20%	-7%	1%
Cn1ccnc1SCC(=O)c1cccc(Br)c1	0.5%	1%	-17%	7%	-27%	76%[activator]	6%	3%
Cc1ccccc1NC(=O)c1ccc(F)c(S(=O)(=O)N2CCN(c3ccccn3)CC2)c1	-0.2%	-6%	3%	?	-4%	22µM*	-5%	?
Additional compounds follow.
SMILES	Cruzain inh Det	Marburg entry inh	RE007 growth inh	Lassa entry inh	Cruzain inh noDet	StopGo reporter	NS1 function inh	SARS PLpro yeast
CCCCSCc1nc2nc(Cl)c(Cl)nc2[nH]1	0.8%	·	-15%	·	8%	-27%	-58%	·
CC1(c2ccccc2Cl)NC(=O)N(CC(=O)N2CCc3ccccc32)C1=O (stereo not drawn)	·	3%[46.1 µM]	7%	-20%[46.1 µM]	·	-13%	·	0%
NC(=S)N/N=C/c1ccc2cccc(OCc3ccccc3)c2n1	·	?	1%	?	·	-22%	10%	11%
C=CCn1c(=O)c2ccccc2n2c(Sc3nnnn3-c3ccccc3)nnc12	4.6%	-8%	16%	5%	6%	?	2%	2%
Cn1c(SCc2ccc(F)cc2)nnc1-c1cnccn1	·	·	-10%	·	·	31%[activator]	-2%	1%
Cn1c2ccccc2c2cc(/C=N/NC(=O)c3ccc(N)cc3)ccc21	·	?	-4%	?	·	-20%	-52%	0%
O=C(CSc1ccccn1)N1CCc2ccccc21	·	?	-2%	?	·	37%[activator]	·	-2%
CCOC(=O)c1ccc(NC(=O)C2Cc3ccccc3CN2S(=O)(=O)c2ccc(Cl)cc2)cc1 (stereo not drawn)	-3.9%	?	·	?	-21%	-24%	·	·
O=C1CN(C(=O)CSc2nc3cc(Cl)ccc3c(=O)n2Cc2ccccc2)c2ccccc2N1	-1.9%	?	-9%	?	?	-29%	?	7%
O=S(=O)(c1ccc(Cl)cc1)N1CCN(CCc2ccccc2)CC1	·	3%[46.1 µM]	-3%	-3%[46.1 µM]	·	-26%	-3%	5%
Cc1ccc(S(=O)(=O)CC(=O)Nc2c(C)n(C)n(-c3ccccc3)c2=O)cc1	·	4%	36%	15%	·	0%	4%	1%
COc1ccc(C(C(=O)NC2CCCCC2)N(Cc2cccs2)C(=O)Cc2c[nH]c3ccccc23)cc1OC (stereo not drawn)	-3.6%	?	5%	?	-8%	-12%	18%	5%

Compounds were not picked by outcome; 4.5% or so of the library scored in one or more.
